Calb FLC: C. albicans growth modulation with fluconazole. C. albicans CaCi-2 (fluconazole-resistant clinical isolate) + fluconazole, Alamar Blue growth, 48 h. growth inhibition, % (concentration not given with the values). hit rate 0.57% among 300,000;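 active = most replicates above 75%; inconclusive = exactly half above 75%; inactive = most below 75%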;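 note: all wells also contain fluconazole at 8 µg/ml as a sub-toxic cotreatment; 0% = median of DMSO wells and 100% = median of geldanamycin control wells; wells of about 8 µL received 7.5 nL stock; the first replicate is given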
LANA-H2B inh: blocks KSHV LANA binding to histone H2A/H2B. cell-free LANA-H2A/H2B peptide, fluorescence polarization. inhibition, % (no concentration beside the values). hit rate 0.6% among 320,000; in the data active = inhibition mostly above about 10%, no sharp cut-off; inactive = mostly below about 6.7%;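 note: stock transfer was 7.5 nL into about 10 µL; 0% = median of vehicle wells and 100% = median of positive control wells; one replicate is shown; the record names a cut of 25% in any replicate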
T cruzi inh: T. cruzi replication inhibition | hit rate 1.4% among 300,000 | inhibition, % (concentration not given with the values) | T. cruzi beta-gal in NIH3T3, luminescence, 90 h;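 active = mean inhibition across valid replicates above about 55%, limit read from the data; inconclusive = mean below that limit but half or more replicates reach it; inactive = mean below it, under half of replicates reach it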;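 note: signal also drops with host cell toxicity which is not excluded here; 0% = plate median of DMSO wells and 100% = zero luminescence signal; higher percent means less beta-gal luminescence so fewer parasites; stock transfer was 50 nL into about 50 µL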
Ecoli rRNA inh: inhibits bacterial ribosomal RNA function over humanized ribosomes; E. coli WT GFP vs humanized-ribosome RFP mutants, fluorescence, 24 h; active compounds read low; DMSO median 0, no signal -100; GFP signal change (wild-type ribosome), % (test concentration not listed); hit rate 1.6% among 350,000;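 active = significant combined selectivity score with lowered wild-type GFP, culture density cut under 30%, mutant RFP and density less affected; inactive = any of these conditions unmet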; note: one replicate is shown; some compounds called inactive have numbers as strong as hits
Beta apoptosis: beta cell apoptosis inhibition; INS-1E cytokine-induced death, ATP luminescence, 48 h; percent of positive-control rescue, neutral wells zero; protection from apoptosis, % (concentration not given with the values); hit rate 0.8% among 300,000;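 active = all replicates at 75% or more, or half of them and the mean; inconclusive = half reach 75% but not the mean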;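 note: 0% = cytokine-treated negative control wells and 100% = positive control rescue; higher means more ATP so stronger rescue from cytokine killing; wells of about 40 µL received 100 nL stock; the first replicate is given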
Beta2AR agonist: agonists of human beta-2 adrenergic receptor inducing internalization; P07550; Am2.2-beta2AR cells, FAP receptor internalization, flow cytometry; reference of the scale not given here; response, % (no concentration beside the values); hit rate 0.43% among 340,000; AID 504454;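 active = response above a set limit, near 3 SD of response in nonfluorescent compounds, cut at about 42% in these data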;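 note: stock transfer was 100 nL into about 11 µL; a reference agonist was the positive control; negative values mostly stem from fluorescent compounds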
Target sequence (P07550 whole entry, looked up): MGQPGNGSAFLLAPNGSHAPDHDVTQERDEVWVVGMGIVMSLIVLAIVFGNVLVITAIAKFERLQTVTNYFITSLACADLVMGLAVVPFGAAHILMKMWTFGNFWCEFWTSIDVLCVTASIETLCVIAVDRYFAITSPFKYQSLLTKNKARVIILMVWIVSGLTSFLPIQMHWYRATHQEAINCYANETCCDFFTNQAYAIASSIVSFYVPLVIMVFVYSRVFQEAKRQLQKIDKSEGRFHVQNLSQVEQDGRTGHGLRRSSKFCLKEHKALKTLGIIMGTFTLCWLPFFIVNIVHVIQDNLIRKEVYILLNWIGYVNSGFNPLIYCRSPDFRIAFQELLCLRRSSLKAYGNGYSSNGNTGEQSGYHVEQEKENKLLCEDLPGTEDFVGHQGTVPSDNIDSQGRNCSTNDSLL
A1 inh: inhibitors of the anti-apoptotic protein A1, read as caspase activation; hit rate 0.066% among 330,000; MEF A1-2A-BIM cells, Caspase-Glo 3/7 luminescence, 3 h; percent of clofoctol response, vehicle zero; caspase activation, % (concentration not given with the values); AID 2462;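 active = over half of replicate activation scores above 10%, or exactly half above 10 with the replicate mean above 10; inconclusive = replicate mean below 10 yet half the replicates above 10; inactive = over half of replicates below 10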;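 note: wells of about 30 µL received 50 nL stock; many hits fall short of the cut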
ALR inh: human ALR oxidase inhibition via reduced H2O2 | purified ALR, DTT oxidation, H2O2 HRP-luminol luminescence | inhibition, % (concentration not given with the values) | AID 485317 | hit rate 3.8% among 290,000;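 active = mean and each replicate at 75% or more; inconclusive = only one of the two met; inactive = neither met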;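 note: stock transfer was 7.5 nL into about 7.5 µL; 0% = neutral wells and 100% = wells with inactivated enzyme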
Target sequence (P55789 whole entry, looked up): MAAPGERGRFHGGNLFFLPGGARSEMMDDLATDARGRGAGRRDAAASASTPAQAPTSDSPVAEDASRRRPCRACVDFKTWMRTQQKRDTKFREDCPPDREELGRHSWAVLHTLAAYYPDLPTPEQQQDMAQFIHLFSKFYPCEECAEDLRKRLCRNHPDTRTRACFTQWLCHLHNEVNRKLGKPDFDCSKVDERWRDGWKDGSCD
Ecoli rRNA inh OD600: further read-out of Ecoli rRNA inh, marked with its call; OD600 change, %; measured here: OD600 growth;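 optical density of the mix in the first replicate; 0 = DMSO median and -100 = no signal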
Ecoli rRNA inh RFP: also measured in Ecoli rRNA inh; calls as there; RFP signal change, %; measured here: RFP humanized mutant strains;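 first replicate; 0 = DMSO median and -100 = no signal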
* = called active by the depositor; ? = inconclusive; nt = not tested or not shown.

SMILES	Calb FLC	LANA-H2B inh	T cruzi inh	Ecoli rRNA inh	Ecoli rRNA inh OD600	Ecoli rRNA inh RFP	Beta apoptosis	Beta2AR agonist	A1 inh	ALR inh
COC(=O)c1cccc(Nc2cc(C)nc(-c3ccccc3O)n2)c1	6.8	4.9	57.9*	nt	nt	nt	23.9	6.9	-1.4	-4.3
Cc1ccc(NN2C(=O)C=CC2=O)cc1	7.1	nt	-2.4	nt	nt	nt	-1.2	5.3	-0.6	nt
COCCN1C(=O)C(=O)/C(=C(/O)c2ccc3c(c2)OCCO3)C1c1ccc(C(=O)OC)cc1 (configuration not stated)	-1.2	-1.8	-2.3	nt	nt	nt	0.0	-0.5	-0.2	1.0
O=C(NC1CCCC1)C1CCN(C(=O)c2ccc(-c3ccccc3)cc2)CC1	-15.9	1.0	16.6	5.7	-4.7	2.2	-10.7	-2.0	0.8	nt
CCOC(=O)N1CCc2c(sc3nc(SC(C)C)n(N)c(=O)c23)C1	3.7	4.6	-1.5	nt	nt	nt	16.9	15.3	0.8	-2.3
O=C(Nc1ccccc1F)c1cc2c(s1)-c1ccccc1S(=O)(=O)C2	-0.5	3.4	27.9	14.4	10.5	0.6	-10.2	14.1	-0.3	nt
O=C(NCC1CCCO1)c1ccc(NS(=O)(=O)c2cccc([N+](=O)[O-])c2)cc1 (configuration not stated)	1.7	0.2	-18.6	11.1	-4.9	-14.5	-0.1	1.3	0.0	9.1
CC(Nc1cccnc1)=C(C#N)C#N	-10.3	7.8	9.9	-0.2	-4.1	1.8	0.3	3.0	1.0	-2.0
O=C(Nc1ccc2oc(-c3ccc4ccccc4c3)nc2c1)c1ccc2c(c1)OCCO2	1.5	-2.6	18.8	nt	nt	nt	49.1	42.9*	0.0	5.3
CCCCCC(=O)N1CCN(S(=O)(=O)c2ccc3c(c2)OCCO3)CC1	2.6	-0.5	-0.6	-3.1	3.1	-1.2	-5.8	-5.2	1.5	-4.0
O=C(C1CCCN(Cc2ccccc2Cl)C1)N1CCCCC1 (configuration not stated)	-9.3	4.2	13.6	6.5	10.9	9.2	-2.4	-14.1	1.2	-15.9
O=C(C1CCC1)N1CCN(S(=O)(=O)c2ccc(Br)cc2Cl)CC1	-1.8	-2.4	14.6	-7.7	-13.6	-1.2	-0.6	-6.4	-0.3	nt
COc1ccc(CCNC(=O)C(=O)NCC2OCCN2S(=O)(=O)c2ccc(C)cc2)cc1OC (configuration not stated)	9.2	-0.8	-5.8	1.1	-0.4	-3.8	5.6	7.0	-0.2	5.6
CCC1(C)Cc2c(C#N)c(N)n(-c3ccccc3)c(=O)c2CO1 (configuration not stated)	-15.0	4.6	-13.9	nt	nt	nt	-0.1	3.1	-1.0	-3.2
CC1=C(C(=O)Nc2ccccc2)C(c2ccco2)NC(=O)N1 (configuration not stated)	-9.5	1.1	6.6	nt	nt	nt	-0.8	0.3	-0.2	nt
COc1cc(CCC(=O)N2CC(C)OC(C)C2)cc(OC)c1OC (configuration not stated)	16.1	10.3	-13.3	19.2	17.1	3.3	-7.3	-4.7	-0.4	-6.8
CCOC(=O)c1ccc(NC(=O)c2ccc(OC(C)C)c(OC)c2)cc1	69.3	1.1	9.3	-25.8*	-14.6*	-6.6*	-0.1	-2.1	-1.1	0.4
CCn1nnc(NC(=S)NC(=O)c2ccc(-c3cccc(Cl)c3)o2)n1	27.4	-3.2	-5.9	-21.4*	-5.8*	5.5*	-0.4	-4.3	-2.0	5.0
CCCCC(=O)Nc1cccc(NC(=S)NC(=O)C(C)C)c1	-9.9	1.4	-0.3	-11.8	-7.0	1.4	5.0	-10.9	0.2	nt
O=C(CSc1ncnc2nc[nH]c12)N1CCN(c2ccc(Cl)cc2)CC1	-5.0	0.6	6.9	nt	nt	nt	nt	-1.9	0.4	40.6
COC(=O)COc1ccc(S(=O)(=O)N2CCN(c3ccc(F)cc3)CC2)cc1	1.7	-1.5	-1.6	17.9	16.2	3.1	-0.9	16.0	-0.2	7.6
CC(=O)c1ccc(S(=O)(=O)N2CCN(S(=O)(=O)c3ccccc3C(F)(F)F)CC2)cc1	3.9	0.0	11.6	6.0	2.6	-4.7	-3.3	-5.0	2.0	0.7
CC1=NN(C(=O)c2ccccc2C)C(O)(c2ccc(Cl)cc2)C1 (configuration not stated)	-9.8	4.5	-10.7	6.5	7.3	-0.1	-3.4	1.0	-1.5	27.0
COc1ccc(-c2nnc(Nc3ccc(CC(N)=O)cc3)c3ccccc23)cc1	-2.3	0.4	44.4	nt	nt	nt	-0.7	17.3	-0.1	10.8
Cc1ccccc1Cc1c(C)nc2nc(SCC(=O)NCc3ccco3)nn2c1C	-23.7	0.4	32.4	nt	nt	nt	7.3	-5.1	0.1	-0.2

Going on with the list.
SMILES	Calb FLC	LANA-H2B inh	T cruzi inh	Ecoli rRNA inh	Ecoli rRNA inh OD600	Ecoli rRNA inh RFP	Beta apoptosis	Beta2AR agonist	A1 inh	ALR inh
CCCC(=O)Nc1ccc(C(=O)NNC(=O)COc2ccc(Br)c(C)c2)cc1	-3.3	-0.5	-12.9	nt	nt	nt	5.1	-2.2	-0.4	-1.0
CCCn1c(CNC(=O)Cc2ccccc2)nc2ccccc21	7.2	-0.3	-4.0	nt	nt	nt	-4.4	-6.0	0.4	2.7
CCOc1cc(CNC(=O)CCCn2c(=O)c3cccn3c3cccnc32)cc(OCC)c1OCC	-0.3	4.0	38.6	5.8	8.7	2.8	-0.3	-10.7	-1.6	0.5
NNc1nc(-c2ccccc2Cl)nc2ccccc12	10.9	-2.6	-3.3	-10.5	-10.4	-1.8	0.1	16.1	-0.1	-2.7
O=C(CNC(=O)c1cccc(F)c1)N/N=C/C=C/c1ccccc1	-3.0	1.7	-1.5	10.7	13.4	1.6	-7.5	-1.6	0.5	1.3
Cc1cccc(OCC(=O)NCCCNC(=O)c2ccc(C)nc2)c1	2.4	-2.1	-11.4	6.8	7.0	0.0	-1.3	0.3	0.4	-5.0
CC(C1CC1)N(Cc1ccccc1)C(=S)Nc1cccc(C(F)(F)F)c1 (configuration not stated)	-7.1	-1.1	-50.2	-31.4	-41.2	-0.4	-14.2	5.4	0.7	-6.9
COc1ccc(Oc2ccccc2/C=N/O)cc1	-2.2	-7.2	16.5	nt	nt	nt	-4.2	-13.2	0.9	-0.2
Nc1nc(NCC(=O)O)nc(NC2CCCCC2)c1[N+](=O)[O-]	6.0	2.7	-0.9	15.9	6.1	1.2	1.0	-4.5	0.1	-1.9
COc1ccc(C(=O)CSc2nnc(-c3ccccn3)n2Cc2ccco2)cc1	-4.3	3.4	7.1	nt	nt	nt	-3.3	-13.3	-0.4	30.0
Nc1ccc(C(=O)Nc2ccco2)cc1	7.2	-2.2	-7.3	nt	nt	nt	4.7	8.8	-0.5	nt
Cc1ccc(-c2cc(-c3ccc(F)cc3)nc(N)c2C#N)o1	6.0	7.4	14.9	nt	nt	nt	-4.1	10.9	-0.2	nt
CCCCOC(=O)NC1(C)CCS(=O)(=O)C1 (configuration not stated)	5.6	3.6	7.1	nt	nt	nt	-15.4	1.9	-0.7	3.9
Cc1cccc(C)c1NC(=O)COC(=O)c1ccc(N2CCCC2)c([N+](=O)[O-])c1	-2.2	3.6	-4.5	nt	nt	nt	6.0	-2.7	-1.6	nt
CN(CC(=O)Nc1ccccc1Br)C(=O)c1cccc(S(=O)(=O)NCc2ccccc2)c1	-2.4	1.0	-5.4	-7.6	-3.5	2.2	0.9	1.5	-0.5	-15.0
O=C(Nc1ccc(F)cc1Cl)c1ccc2c(=O)n3c(nc2c1)CCC3	34.2	-0.4	-2.3	2.1	9.5	0.9	nt	-0.8	0.1	nt
Cn1c(CCN2CCOCC2)nc2cc(NC(=O)COc3ccc([N+](=O)[O-])cc3)ccc21	27.1	-9.5	11.7	-5.9	5.3	0.7	1.7	14.8	1.7	-38.1
Cc1ccc(N(C(=O)c2ccco2)C(C(=O)NC2CCCC2)c2ccco2)c(C)c1 (configuration not stated)	-1.6	-0.7	-2.1	-4.7	7.7	1.1	-8.3	1.5	1.6	1.9
COc1ccc(S(=O)(=O)Nc2cccc(F)c2C)cc1C(=O)N1CCOCC1	-10.9	-0.8	-0.7	7.9	12.6	-0.5	nt	0.4	1.2	-1.4
CCc1nc(CN2CCN(c3ccc(C(F)(F)F)cn3)CC2)c(C)[nH]1	-14.3	-0.4	19.6	17.1	12.7	3.1	9.3	0.0	-0.6	-1.9
O=C(NCc1ccc2c(c1)OCO2)C1CCCN1C(=O)Nc1ccc(Cl)cc1 (configuration not stated)	4.1	-5.1	-0.1	1.8	9.6	1.1	-0.8	5.7	-0.1	-1.1
CCOC(=O)C1C(c2ccccc2Cl)NC(=O)N(C)C1(O)C(F)(F)F (configuration not stated)	11.4	-3.2	-25.6	5.8	6.7	-4.3	3.6	4.8	-0.3	1.5
O=C(CSc1nc2ccccc2s1)Nc1ccc(Cl)c(C(=O)O)c1	-4.6	1.2	-5.1	-12.6	-10.1	-4.4	-5.4	-6.6	0.2	98.9*
CC1C(=O)N2CCCc3cc(NC(=O)C(=O)NCCc4ccccc4)cc1c32 (configuration not stated)	-4.9	12.8	1.8	-4.6	-2.1	-3.5	nt	-3.4	0.1	-3.0
C=CCOC(=O)C1=C(C)OC(N)=C(C#N)C1c1ccoc1 (configuration not stated)	?	17.2	3.2	nt	nt	nt	-8.3	6.4	1.2	22.8

(cont.)
SMILES	Calb FLC	LANA-H2B inh	T cruzi inh	Ecoli rRNA inh	Ecoli rRNA inh OD600	Ecoli rRNA inh RFP	Beta apoptosis	Beta2AR agonist	A1 inh	ALR inh
CC(C)[C@H](NC(=O)C1CCCC1)c1nc2ccccc2[nH]1	43.6	-5.7	-9.4	5.1	4.6	-0.9	-2.8	3.5	0.3	nt
CC(C)C[C@H](NC(=O)c1[nH]cnc1C(=O)N[C@@H](C)c1ccccc1)C(=O)OCc1ccccc1	10.9	1.2	6.6	nt	nt	nt	-0.5	11.3	1.7	nt
C/C(Cn1nnc2ccccc21)=N\NC(=O)c1ccc(Br)cc1	-3.8	-3.4	7.8	-6.1	-5.4	-4.0	-0.8	-1.1	0.1	-1.5
CCN(CC)CCCNc1ncnc2scc(-c3ccc(F)cc3)c12	-82.1	2.3	8.6	-6.6	-1.3	-1.7	-12.7	6.9	0.4	-7.8
CC(=O)N1CCc2cc(C(=O)CN3CCC(C)CC3)ccc21	11.6	-3.0	-1.0	1.7	-0.6	0.8	-3.1	4.7	-0.1	-0.2
CC(=O)N/C(=C/c1ccc(OS(=O)(=O)c2ccc(C)cc2)cc1)C(=O)Nc1ccc(C(=O)O)cc1	0.9	6.5	2.2	4.3	14.6	-4.7	-2.2	-6.5	0.4	3.6
CCN1CCN(CCCOc2ccccc2-c2ccccc2)CC1	-25.1	-1.4	nt	-7.1	-9.9	-3.9	-3.9	-0.2	0.6	nt
Cc1ccc(CCNC(=O)C2CCN(C(=O)N(C)C)CC2)cc1	-5.4	-0.9	-19.4	nt	nt	nt	-4.8	4.7	1.5	-4.3
COCc1cc(N2CCOCC2)nc(-c2ccccc2)n1	-24.5	-1.4	5.7	4.7	1.6	-0.8	-4.6	-6.7	0.1	nt
O=C(N/N=C/c1ccco1)c1cc(-c2ccc(Cl)cc2)n[nH]1	-6.2	0.5	-3.6	-19.2*	3.4*	1.4*	6.1	7.0	0.9	1.4
CC1=C(C(=O)OC(C)C)C(c2ccc(F)cc2)NC(=O)N1 (configuration not stated)	10.3	-9.3	7.3	nt	nt	nt	1.7	10.6	0.4	1.4

Compound activity from PubChem BioAssay.

These rows are one share of the data; count on the stated rates, not on these rows.
